Screening results from PubChem.
VDR inh = inhibitors of human vitamin D receptor. 400,000 compounds, 0.93% hits. Potency, µM, inactives show max response, negative = inhibition, actives largely listed as inhibitors. P11473. VDR-SRC2-3 peptide fluorescence polarization, 2 h. AID 504847; active = well fitted inhibition curve with a large enough effect; inconclusive = small, poorly fitted or top-dose-only effect, or another doubt; inactive = no such curve, though single readings can be large or run the other way; note: series mostly up to about 120 µM
Target sequence (P11473 whole entry, looked up): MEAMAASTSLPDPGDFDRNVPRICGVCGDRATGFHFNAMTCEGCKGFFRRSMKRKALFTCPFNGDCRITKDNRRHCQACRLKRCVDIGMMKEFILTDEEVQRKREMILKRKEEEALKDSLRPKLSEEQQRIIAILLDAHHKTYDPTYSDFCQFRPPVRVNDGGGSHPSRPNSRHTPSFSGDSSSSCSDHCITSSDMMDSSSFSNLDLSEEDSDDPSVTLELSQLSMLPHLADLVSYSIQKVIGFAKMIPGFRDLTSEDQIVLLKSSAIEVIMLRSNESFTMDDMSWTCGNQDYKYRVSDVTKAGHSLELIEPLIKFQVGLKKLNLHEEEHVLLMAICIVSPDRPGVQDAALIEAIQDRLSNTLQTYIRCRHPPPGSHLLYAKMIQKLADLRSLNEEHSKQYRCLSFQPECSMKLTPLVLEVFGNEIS
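Reagent solutions, kept cold and dark, are dispensed first; compounds are then pinned in at 23 nl, plates briefly spun, and incubated 2 h at ambient temperature. Inhibition of VDR–SRC2-3 peptide binding is read by fluorescence polarization.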
* marks the source's active call; other numbers are inactive results; ? = inconclusive; & = joins results of further samples. % is set by controls: 0 for no effect and ±100 for the full control effect; potency is the fitted concentration of half-maximal effect. These rows are one share of the data; rates above refer to the full screens.

Start of the data: the first 16 entries, ahead of the listing:
SMILES	VDR inh
CC1CCCC(C)N1C(=O)/C=C/c1ccc(S(=O)(=O)N2CCOCC2)cc1 (stereo unspecified)	6%
O=C(NCc1nc2ccccc2[nH]1)c1cccc(S(=O)(=O)N2CCCC2)c1	-3%
CCn1ncc([N+](=O)[O-])c1C(=O)Nc1nc2cccc(C)c2s1	-1%
O=C(Nc1ccc2nc(-c3ccc4nc[nH]c4c3)[nH]c2c1)c1cccs1	-5%
Cc1cccc(C)c1NC(=O)c1ccc(N2CCCC2=O)cc1	21%
CCOc1ccc2[nH]c(=O)c(CN(CC3COCCO3)C(=O)C3CC3)cc2c1 (stereo unspecified)	-2%
O=C(O)CCC(=O)Nc1ccccc1C(=O)NCc1ccccc1	7%
COc1cc(C2NC(=O)c3ccccc3O2)cc(OC)c1OC (stereo unspecified)	-7%
CC(=O)N=c1sc(S(N)(=O)=O)nn1C	-8%&-20%
CC(=O)c1ccc(N2CCN(c3ccc(C(N)=O)cc3[N+](=O)[O-])CC2)cc1	-4%
CC(C)NC(=O)c1ccccc1S(=O)(=O)c1ccccc1C#N	3%
CCOC(=O)c1ccc(NC(=O)COc2ccccc2OC)cc1	-6%
Cc1ccc(NC(=O)Cn2cc3c(n2)CCC(C)C3)cc1 (stereo unspecified)	-12%
CC(C)(C)C(=O)C(CO)(Oc1ccc(Cl)cc1)n1cncn1 (stereo unspecified)	11%
CCOC(=O)C1(Cc2ccc(OC)cc2)CCN(C(=O)CCc2cnccn2)CC1	-2%
Clc1cccc(-n2ncc3c(N4CCCCC4)ncnc32)c1	6%

The listing, previewed entries included:
SMILES	VDR inh
CC1CCCC(C)N1C(=O)/C=C/c1ccc(S(=O)(=O)N2CCOCC2)cc1 (stereo unspecified)	6%
O=C(NCc1nc2ccccc2[nH]1)c1cccc(S(=O)(=O)N2CCCC2)c1	-3%
CCn1ncc([N+](=O)[O-])c1C(=O)Nc1nc2cccc(C)c2s1	-1%
O=C(Nc1ccc2nc(-c3ccc4nc[nH]c4c3)[nH]c2c1)c1cccs1	-5%
Cc1cccc(C)c1NC(=O)c1ccc(N2CCCC2=O)cc1	21%
CCOc1ccc2[nH]c(=O)c(CN(CC3COCCO3)C(=O)C3CC3)cc2c1 (stereo unspecified)	-2%
O=C(O)CCC(=O)Nc1ccccc1C(=O)NCc1ccccc1	7%
COc1cc(C2NC(=O)c3ccccc3O2)cc(OC)c1OC (stereo unspecified)	-7%
CC(=O)N=c1sc(S(N)(=O)=O)nn1C	-8%&-20%
CC(=O)c1ccc(N2CCN(c3ccc(C(N)=O)cc3[N+](=O)[O-])CC2)cc1	-4%
CC(C)NC(=O)c1ccccc1S(=O)(=O)c1ccccc1C#N	3%
CCOC(=O)c1ccc(NC(=O)COc2ccccc2OC)cc1	-6%
Cc1ccc(NC(=O)Cn2cc3c(n2)CCC(C)C3)cc1 (stereo unspecified)	-12%
CC(C)(C)C(=O)C(CO)(Oc1ccc(Cl)cc1)n1cncn1 (stereo unspecified)	11%
CCOC(=O)C1(Cc2ccc(OC)cc2)CCN(C(=O)CCc2cnccn2)CC1	-2%
Clc1cccc(-n2ncc3c(N4CCCCC4)ncnc32)c1	6%
CC(C)CCCC(C)C1CCC2C3CC(=O)[C@H]4CC(O)CC[C@]4(C)C3CC[C@@]12C (stereo partly specified)	3%
CCOC(=O)N1CCC(N2Cc3cccc(C(=O)NCc4ccc5c(c4)OCO5)c3C2=O)CC1	-2%
CCc1ccc2c(c1)c(=O)c(S(=O)(=O)c1ccc(F)cc1)cn2CC(=O)Nc1ccc(C)cc1C	-8%
Cc1ccc2nc(NCc3ccccc3)c(C=O)c(=O)n2c1	0%
CCNC(=O)/C(C#N)=C/c1c(N2CCCCCC2)nc2ccccn2c1=O	-7%
O=C(N/N=C/c1ccc(OCc2ccccc2)cc1)c1cc[n+](Cc2ccccc2)cc1	-2%
O=C(NCc1ccccc1)c1cc2ccc3cccnc3c2[nH]1	18%
Nc1nc(-c2ccc(Cl)cc2)cn1N	-14%
O=C(Cc1ccc(Cl)cc1)NC1CCCCCC1	11%
Cc1cc(-c2ccc(C)c(S(=O)(=O)NCCC(C)N3CCCCCC3)c2)on1 (stereo unspecified)	-2%
CCOC(=O)c1ccc(NC(=O)CSc2nc3cc4ccccc4cc3[nH]2)cc1	-13%
CCOC(=O)c1c(C)[nH]c(C)c1S(=O)(=O)N(C)CC(=O)Nc1cc(Cl)ccc1OC	1%
O=C(N/N=C/c1cccc(C(F)(F)F)c1)c1ccccc1O	-14%
Cc1[nH]nc(SCC(=O)NCc2ccc(F)cc2)c1[N+](=O)[O-]	-5%
COc1cc(Cl)c([C@@H]2C[C@H]3CN(c4ccccc4)C(=O)[C@]34CCCN24)cc1OC	-3%
O=C(COC(=O)COc1ccc(Cl)cc1)NCCCc1ccccc1	3%
COc1ccc(CNC(=O)C2CC(c3cc(C(F)(F)F)cc(C(F)(F)F)c3)=NO2)cc1 (stereo unspecified)	-18%
O=C(NC(=S)N1CCc2ccccc21)c1ccco1	-19%
Cc1ccc(C)c(NS(=O)(=O)c2c(C)[nH]c(C)c2C(=O)N2CCCCC2)c1	-16%
CCSc1nc2c(c(=O)[nH]c(=O)n2C)n1CC(O)COc1ccccc1C (stereo unspecified)	-27%
O=C(NNc1c2ccccc2nc2ccccc12)c1ccccc1O	8%
N#C/C(=C\c1ccc(N2CCOCC2)o1)C(=O)Nc1ccc(O)cc1	-3%
COc1ccc(OCc2nnc(SCC(=O)N3CCCC3)o2)cc1	-16%
Cc1ccc(OCCNc2ccc(S(=O)(=O)N3CCCC3)cn2)cc1	-7%
Cc1nn(-c2ncccn2)c2c1C(=O)CC(C)(C)C2Br (stereo unspecified)	-22%
CCCN1CCN(C(=O)CCS(=O)(=O)c2cc3c(cc2Cl)NC(=O)CO3)CC1	1%
COC(=O)CN(c1ccc(OC)c(OC)c1)S(C)(=O)=O	5%
Cc1cc(C)n(/C(=C\N(C)C)C(=O)c2cccc([N+](=O)[O-])c2)n1	-1%
Cc1ccc(C(=O)N/C(=C\c2cccs2)c2nc3ccccc3[nH]2)cc1	-20%
Cc1snc(S(=O)(=O)Cc2ccccc2Cl)c1C#N	-5%
O=c1c2cc3c(nc2ncn1Cc1ccccc1F)CCCC3	-6%
Cn1cc(S(=O)(=O)N2CCCCC2)cc1C(=O)N1CCN(c2ccc(F)cc2)CC1	-6%
CCCN1CCn2c3c(c4cc(Br)ccc42)CCCC31 (stereo unspecified)	-17%
O=C(N/N=C/c1cccnc1)c1cccc(Cl)c1	10%
COC(=O)[C@@H]1OC(c2ccccc2)O[C@H]1C(=O)OC	6%
C/C(=N/NC(=O)CNC(=O)c1cccnc1)c1ccc(Cl)c(Cl)c1	-10%
CCOC(=O)N1CCN(C(=O)C2CCCN(c3ncnc4c3sc3cccc(F)c34)C2)CC1 (stereo unspecified)	?
COc1ccccc1Nc1nc2ccc(C)cc2cc1C#N	-16%
O=C(NCC1COc2ccccc2O1)Nc1ccccc1F (stereo unspecified)	-13%
CN(C(=O)c1ccccc1NC(=O)C(F)(F)F)c1ccccc1	3%
Cn1cccc1Cc1nnc(SCC(=O)N2CCOCC2)n1-c1ccc(F)cc1	-16%
COc1ccc(NC(=O)c2sc3nc4n(c(=O)c3c2C)CCC4)cc1Cl	-1%
CCOC(=O)c1sc2nc(-c3cccnc3)ccc2c1N	10%
Cc1nc(-c2ccccc2)sc1C(N)=O	9%

Next part
SMILES	VDR inh
Cc1cc(C)cc(NC(=S)N(Cc2ccc(Cl)cc2)Cc2ccc(C(=O)O)cc2)c1	-20%
CC(=O)n1cc([C@H]2C=C(C(=O)N3CCN(Cc4ccc5c(c4)OCO5)CC3)O[C@@H](OCCCCO)C2)c2ccccc21	3%
CCCCCNC(=O)c1cc(S(=O)(=O)N2CCCC2)ccc1F	-1%
COc1cc(C(=O)N/C(=C\c2cn(S(=O)(=O)N(C)C)c3ccccc23)C(=O)N2CCCC2)cc(OC)c1OC	-18%
CC(C)N1C(=O)CCC1C(=O)NCCc1ccc(Cl)cc1 (stereo unspecified)	-18%
CC(OC(=O)Cn1cnc2c1c(=O)n(C)c(=O)n2C)C(=O)NC1CCCCC1C (stereo unspecified)	1%
COCCn1c(SCC(=O)Nc2cccc(OC)c2)nc2c(oc3ccccc32)c1=O	-16%
Cc1c(C)n(CCN(C)C)c2ncnc(NCc3ccccc3)c12	-5%
CC1=C(C(=O)Nc2ccc(C)cc2C)C(c2ccc(Br)cc2)n2ncc(C(=O)Nc3cccc(C)c3)c2N1 (stereo unspecified)	8%
CCN(Cc1ccccc1)C(=O)CC(=O)N(CC)Cc1ccccc1	4%
Cc1ccc(-c2noc(CCC(=O)NCCN3CCOCC3)n2)cc1	12%
O=C1CSc2ccc(S(=O)(=O)NCc3ccc(Cl)cc3)cc2N1	3%
O=C(O)c1cc2cccc(S(=O)(=O)N3CCOCC3)c2cc1O	11%
Cc1nc2ccccn2c1C(=O)N/N=C/c1ccccc1Cl	-17%
COC(=O)c1sc(NC(=S)NC(=O)c2ccccc2F)nc1C	0%
CCOC(=O)c1ccc(Oc2nc(NC)nc(SC)n2)cc1	-8%
COc1ccc2nc(NC(=O)CSc3nc4ccccc4o3)sc2c1	16%
O=C(CN1CCC(Cc2ccccc2)CC1)N1CCc2ccccc2C1	-3%
Cc1ccc(-c2nc3ccccc3[nH]2)cc1NC(=O)c1ccc2c(c1)OCO2	-2%
COCCCNC(=O)c1cc(C(=O)c2c(-c3c(Cl)cccc3Cl)noc2C)c[nH]1	13%

Taken from the results shown, 2 compounds:
SMILES	VDR inh
CC1CCCC(C)N1C(=O)/C=C/c1ccc(S(=O)(=O)N2CCOCC2)cc1 (stereo unspecified)	6%
O=C(NCc1nc2ccccc2[nH]1)c1cccc(S(=O)(=O)N2CCCC2)c1	-3%

Continued:
SMILES	VDR inh
O=C1c2sc3nc4ccccc4n3c2C(=O)N1c1ccccc1Cl	-4%
Cc1cccc(C(C)C)c1NC(=O)c1cc2ccccc2o1	-2%
CCOC(=O)Cc1ccc(NC(=O)c2ccc([N+](=O)[O-])cc2)cc1	-3%
Cc1ccc(-c2noc(CCCC(=O)NCC3CCCO3)n2)cc1 (stereo unspecified)	-4%
Cc1cc(NC(=O)Cn2c(=O)nc(-c3ccccc3F)c3cc(Cl)ccc32)ccc1Br	-1%
COc1cccc(OC)c1OCCCc1c(C)n[nH]c1C	20%
Cc1ccc(OCC(=O)NCc2ccccn2)cc1	11%
O=C(CCC1N=C2c3ccccc3N=C(SCc3cccc(F)c3)N2C1=O)NCc1ccc(F)cc1 (stereo unspecified)	6%
COc1ccc(CNC(=O)CN2C(=O)C(c3ccccc3)Oc3cccnc32)cc1 (stereo unspecified)	10%
Cc1ccc(C(=O)O/N=C(\N)c2ccccn2)cc1Cl	10%
Cc1ccc2c(c1)nnn2C1CCN(C(=O)NCc2ccccc2)CC1	-9%
COc1ccc(C)cc1NS(=O)(=O)c1ccc(Br)s1	1%
CC1CCN(C(=O)CSc2nc3c([nH]c4ccccc43)c(=O)n2-c2ccccc2)CC1	12%
CCCCOc1ccc(S(=O)(=O)n2c(C)nc3ccccc32)cc1	11%
CCOC(=O)CCC(=O)NNC(=O)COc1ccc(C(C)C)cc1Br	2%
CC(Sc1ccccc1)C(=O)NN=C1CCCC1 (stereo unspecified)	-14%
O=C1C2C3c4ccccc4C(c4ccccc43)C2C(=O)N1c1nc(-c2ccccc2)cs1 (stereo unspecified)	-20%
Cc1cc2c(C)c(C)c(=O)[nH]c2cc1N	1%
COc1ccc(NC(=O)C2CCN(S(=O)(=O)c3c(C)noc3/C=C/c3ccc(C)cc3)CC2)cc1Cl	14%
Cc1cc2c(cc1C)C(=O)C(Br)=C(N)C2=O	3%
Cc1ccc2cc(CN(Cc3ccco3)C(=S)NCC3CCCO3)c(=O)[nH]c2c1 (stereo unspecified)	-8%
Cc1ccc(OCC(=O)Nc2ccc(N3CCOCC3)cc2)cc1	5%
COC(=O)c1c(C)[nH]c(C(=O)C(C)OC(=O)C2CC(=O)N(CCc3ccccc3)C2)c1C (stereo unspecified)	-3%
COc1ccc(NC(=O)C2CCN(c3nnnn3-c3ccccc3)CC2)cc1	-7%
COc1ccc2c(c1)c1c(c(=O)n(-c3ccccc3C)c(=O)n1Cc1cccc(C(F)(F)F)c1)n2C	16%
O=C(NCCCN1CCN(c2ccc(F)cc2)CC1)NC12CC3CC(CC(C3)C1)C2	6%
O=S(=O)(Nc1nc2ccccc2nc1Cl)c1ccc(F)cc1	-4%
CCOc1ccc(CN2CCNC(=O)C2CC(=O)NCCN2CCOC2=O)cc1 (stereo unspecified)	-2%
COc1ccccc1C(O)c1nccn1Cc1ccccc1 (stereo unspecified)	-4%
CC(C)(C)S(=O)N1Cc2cc(CO)cc(-c3ccccc3)c2[C@H]1CCO (stereo partly specified)	-2%
O=C(Nc1ccc(S(=O)(=O)Nc2nccs2)cc1)c1ccc(F)cc1	-12%
Cc1ccccc1SCC(=O)NNC(=O)c1ccccc1O	20%
COc1cccc(OCC(O)CN2CCN(c3ccccn3)CC2)c1 (stereo unspecified)	-20%
COc1cccc(/C=c2\s/c(=C\C(=O)C(C)(C)C)[nH]c2=O)c1	-17%
O=S(=O)(Nc1ccc2ccccc2n1)c1ccccc1	-1%
CCS(=O)(=O)c1ccc(-c2cccc(NC(=O)COc3ccc(Cl)cc3)c2)nn1	6%
CCc1ccc(NC(=O)CN2C(=O)CC(c3ccccc3)Sc3ccccc32)cc1 (stereo unspecified)	-3%
CCN(CC)CCCNC(=O)Cc1csc2nc(-c3ccc(Cl)cc3)cn12	16%
Cc1ccc(-c2csc(SCC(=O)Nc3cc(C)on3)n2)cc1	2%
CC(C)N(C(=O)[C@H]1CC(CC(=O)NCCCN(C)C)C(=O)N2CCc3c([nH]c4ccccc34)[C@]12C)C(C)C (stereo partly specified)	-20%
O=C(/C=C/c1ccccc1)N1CCN(Cc2nc3ccccc3c(=O)[nH]2)CC1	1%
Cc1ccc(S(=O)(=O)NN2C(=O)/C(=C\c3ccc(Cl)cc3)SC2=S)cc1	-11%
Cc1cc(=O)oc2c3c(cc(OCC(=O)NCCC(=O)O)c12)OC(C)(C)CC3	8%
CCN1C(=O)[C@H]2[C@@H](c3ccc(-c4ccc(OC)cc4)c(OC)c3)N[C@@](CC(C)C)(C(=O)OC)[C@H]2C1=O	9%
